# RVFV N-RNA inh: inhibitors of Rift Valley Fever Virus nucleocapsid-RNA interaction | P21700 | RVFV N-RNA binding, fluorescence polarization; hits give low values | % bound, % (concentration not given with the values) | 20,000 compounds, 0.1% hits | AID 651828;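 active means between 0 and 58% in either replicate with normal brightness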;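 further: 100 nL library stock added to about 12 µL; 100% = protein and probe without compound and 0% = probe alone; numbers are from one replicate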
# Target sequence (P21700 whole entry, looked up): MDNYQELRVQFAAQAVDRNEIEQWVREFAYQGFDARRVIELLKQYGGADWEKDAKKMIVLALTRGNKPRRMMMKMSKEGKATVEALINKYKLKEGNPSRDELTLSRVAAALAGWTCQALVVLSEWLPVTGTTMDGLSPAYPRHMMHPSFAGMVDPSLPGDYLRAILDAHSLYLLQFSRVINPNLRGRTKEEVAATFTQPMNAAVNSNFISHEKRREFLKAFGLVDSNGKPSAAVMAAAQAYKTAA
# Numbers without * were called inactive; & = joins results of further samples. Not all compounds are listed, so the mix of outcomes need not match the whole.
SMILES,RVFV N-RNA inh
Cc1cccc(-c2nc(C)c(CCC(C)C)c(=O)[nH]2)c1,90
CC(C)(CSc1ccccn1)NS(=O)(=O)c1ccccc1,91
Cn1cc(Br)c(-c2ccc(NC(=O)Nc3ccccc3)cc2)n1,95
COc1ccc(-c2nc(SC(CC(=O)NCCN3CCOCC3)c3ccc(OC)cc3)n[nH]2)cc1 (stereo unspecified),97
CC1=CC(C)(C)N2C(=O)C3(OCCO3)c3cc(C)cc1c32,98
C=CCNC(=O)c1ccc(NS(=O)(=O)CC)cc1,103
COc1cccc(C(=O)NCCO)c1OC,102
CCCN1CCC(NC(C)CCCC(C)(C)O)CC1 (stereo unspecified),99
O=C(CCC(=O)Nc1ccccc1)Nc1ccccc1,101
CCN(c1cccc(C)c1)S(=O)(=O)c1cc2c3c(c1)CCN3C(=O)CC2,97
CC12C=CC(=O)C1(C)C(=O)C=C2 (stereo unspecified),95
O=C(CC1CCCC1)Nc1c(C(=O)Nc2ccccc2)oc2ccccc12,96
N#Cc1nc(-c2ccccc2)cc(-c2ccccc2)n1,98
CC(C)Cc1ccc(C(=O)C(C)N2CCN(c3ccc(C(F)(F)F)cn3)CC2)cc1 (stereo unspecified),87
O=C(O)/C=C/C(=O)NC1CCCCC1NC(=O)/C=C/C(=O)O (stereo unspecified),100
COc1ccccc1C1CC(C(F)(F)F)n2ncc(C(=O)O)c2N1 (stereo unspecified),100
CCc1ccc(N2CCN(C(=O)c3ccc4c(c3)OCO4)CC2)cc1,97
Cc1cc(I)ccc1Nc1c(C(=O)NOCC2CC2)cc(F)c(F)c1F,102
C/C(Cn1c(=O)oc2ccccc21)=N\OC(=O)Nc1ccccc1,90
CC(C(N)=O)N1C(=O)c2cccc3cccc1c23 (stereo unspecified),93
COc1ccc(C(=O)N/C(=C\c2ccccc2)C(=O)NCc2ccco2)cc1,99
CCOc1ccc(NC(=O)Cn2ccc3c(OCC(=O)OC)cccc3c2=O)cc1,92
CCC(=O)c1ccccc1OCCCn1cnc2ccccc2c1=O,99
CCOC(=O)C(=O)c1c(O)[nH]c2ccccc12,90
O=C1CCCN1CP(=O)(O)CCc1ccccc1,93

# Continued.
SMILES,RVFV N-RNA inh
COc1ccc(CCNS(=O)(=O)N(C)C)cc1,99
C[C@]12Cc3cn4c(nc3C=C1CCC1C2CC[C@@]2(C)[C@H]1CC[C@@]2(O)C#N)nc1ccccc14 (stereo partly specified),98
Cc1cc2c(=O)n(CC(=O)Nc3ccccc3)cnc2s1,97
CC(=O)Nc1cccc(-c2nnc3n2CC(C)S3)c1 (stereo unspecified),104
CCOC(=O)C1=NNC2C(=O)NC(=O)C12 (stereo unspecified),102
Cc1ccc(N(C(=O)c2cccc(F)c2)C2C=CS(=O)(=O)C2)cc1 (stereo unspecified),98
N/C(=N\OC(=O)Nc1ccccc1)c1ccno1,88
SCCCCOc1ccccc1Br,97
CCNc1nc(NCC)nc(C(N)=O)n1,105
CCOC(=O)c1[nH]c(=O)[nH]c1CN(Cc1ccco1)Cc1[nH]c(=O)[nH]c1C(=O)OCC,88
CCc1ccc(N2CCN(S(=O)(=O)c3ccccc3)CC2)cc1,97
C/C(=N\OC(=O)c1ccc(C(F)(F)F)cc1)c1ccc[nH]1,95
Clc1cc(Cl)cc(NC2=NCCS2)c1,86
Cc1cc(OC(=O)c2nn(-c3ccccc3)nc2C)n(-c2ccccc2)n1,111
O=C(O)CSCc1nc(-c2cnc3n(c2=O)CCS3)no1,87
Cc1nc(-c2noc(C(=O)NN)n2)cs1,99
Cc1cc(C)cc(C(=O)NN2CCOCC2)c1,100
COC(=O)C(CC(C)C)N1C(=O)c2cc(Cl)c(Cl)cc2C1=O (stereo unspecified),96
C=CC1CN2CCC1CC2C(OC(=O)CCC(=O)O)c1ccnc2ccccc12 (stereo unspecified),92
CCNC(=O)N1c2ccccc2Sc2ccccc21,94
CC12CCC(C(=O)N3CCc4ccccc43)(CC1=O)C2(C)C (stereo unspecified),96
Cc1cc2cc(CNC(=O)CC(C)(C)C)ccc2[nH]1,95
CC(C)=CC(=O)Nc1nc2ccc(C)cc2s1,101
CCCCC12CN3CCN(CC(C3)C1=N/N=C1\C3CN4CCN(C3)CC1(CCCC)C4)C2,97
CC(=O)Oc1c(Br)c(=O)[nH]c2ccccc12,91

# The final 6 entries of the section before lead into the next.
SMILES,RVFV N-RNA inh
CCNC(=O)N1c2ccccc2Sc2ccccc21,94
CC12CCC(C(=O)N3CCc4ccccc43)(CC1=O)C2(C)C (stereo unspecified),96
Cc1cc2cc(CNC(=O)CC(C)(C)C)ccc2[nH]1,95
CC(C)=CC(=O)Nc1nc2ccc(C)cc2s1,101
CCCCC12CN3CCN(CC(C3)C1=N/N=C1\C3CN4CCN(C3)CC1(CCCC)C4)C2,97
CC(=O)Oc1c(Br)c(=O)[nH]c2ccccc12,91
CC(C)c1ccc(NC(=O)NC(=O)c2ncon2)cc1,100
CCOC(=O)c1cc(-c2csc(CS(=O)(=O)Cc3cccc(C(F)(F)F)c3)n2)on1,93
O=C1CCCC/C1=C/NCc1ccccc1,93
CC(C)(C)NC(=O)N1CCC(C(N)=O)CC1,88
O=C(COc1coc(CN2CCc3ccccc32)cc1=O)NC1CCCC1,90
COc1ccc(S(=O)(=O)NC(N)=NCCc2ccc(Cl)cc2)cc1OC,101
CC(=O)O[C@]1(C(C)=O)CC[C@H]2[C@@H]3C[C@H](C)C4=CC(=O)CC[C@]4(C)[C@H]3CC[C@@]21C,99
COc1ccc(-c2c(C)c3ccc(O)cc3oc2=O)cc1OC,91
COc1ccc(NS(=O)(=O)c2ccc3c(c2)CCO3)cc1,110
C=CCNC(=O)c1cc2cccc(OC)c2oc1=O,102
COc1cc2nccc(Oc3ccc(NC(=S)NC(=O)c4ccccc4C)cc3)c2cc1OC,99
O=C(OCC1CC1)c1sc2ccccc2c1Cl,98
O=C(c1ccco1)N(Cc1ccccc1O)c1ccc(Cl)cc1,90
O=C(/C=C/c1ccccc1)N1CCCC1,100
Cn1cc(C(F)(F)F)nc1-c1ccc(OCC(O)CNCCOc2ccc(O)c(C(N)=O)c2)cc1 (stereo unspecified),91
CN1C(=O)c2ccc(C(=O)NCc3ccccc3)cc2C1=O,112
Cn1nnc2c(N3CCCc4ccccc43)ncnc21,101
O=S1(=O)C=C(Nc2ccccc2)CC1,94
C/C=C/c1c(F)c(F)c(Oc2ccc(OC)cc2)c(F)c1F,98
CN(C)c1ccc(C=Nc2nonc2-c2ccccc2)cc1,95
Clc1cccc(-n2ncc3c(SCCN4CCCCC4)ncnc32)c1,103
CC(=O)OC(C)(C)C(=O)/C=C/c1ccccc1,99
COCCCn1c(OC(=O)N(C)C)c(C)c(C)nc1=S,109
N#Cc1c(-c2ccc(Cl)cc2)c2c([nH]c1=O)-c1ccccc1SC2,99
Cc1nn(C)cc1CN1CCN(C(=S)NCCc2ccccc2)CC1,89

# Reprinted at random: six records from the list, in no set order.
SMILES,RVFV N-RNA inh
O=C(c1ccco1)N(Cc1ccccc1O)c1ccc(Cl)cc1,90
COc1cc2nccc(Oc3ccc(NC(=S)NC(=O)c4ccccc4C)cc3)c2cc1OC,99
CC(C)(C)NC(=O)N1CCC(C(N)=O)CC1,88
N#Cc1c(-c2ccc(Cl)cc2)c2c([nH]c1=O)-c1ccccc1SC2,99
COCCCn1c(OC(=O)N(C)C)c(C)c(C)nc1=S,109
Cc1nn(C)cc1CN1CCN(C(=S)NCCc2ccccc2)CC1,89

# (cont.)
SMILES,RVFV N-RNA inh
C/C(Cc1nc2ccccc2[nH]1)=N/NC(=O)c1ccccc1,90
C=C(C)C(=O)Nc1cc(NC(=O)C(=C)C)cc(C(=O)O)c1,88
O=C1CN2Cc3c(ccc(Cl)c3Cl)N=C2N1,91&93
c1ccc(CSc2nnc3ccc(-c4ccc5c(c4)OCO5)nn23)nc1,95
O=S(=O)(N/N=C/c1ccsc1)c1ccc(Cl)s1,91
CNC(=S)N1CCc2ccccc2C1,100
COc1cccc(N=Cc2ccccc2O)c1,89
CCOC(=O)/C(C#N)=C1/C=CC(Cl)=NN1,95
NN/C(=N\S(=O)(=O)c1ccccc1)NNc1ccccc1,82
COC(=O)c1ccc(OCCOc2ccc(C(=O)OC)cc2)cc1,109
OC1CCCN(C2CCN(CCc3ccccc3)CC2)C1 (stereo unspecified),96
CN(C)CCOC(=O)NC1CC(=O)N(c2ccc(F)cc2)C1 (stereo unspecified),94
COc1ccc(CCNC2CC(=O)N(CCc3ccc(OC)c(OC)c3)C2=O)cc1 (stereo unspecified),98
O=C(O)C[C@H](O)C[C@H](O)/C=C/c1c(C2CC2)nc2ccccc2c1-c1ccc(F)cc1,101&99
O=C(CN1CCN(c2cccc(Cl)c2)CC1)c1ccc(Cl)cc1,89
CC(Oc1ccccc1)C(=O)NC1CC(C)(C)NC(C)(C)C1 (stereo unspecified),95
CC[C@H]1OC(=O)[C@H](C)[C@@H](O[C@H]2C[C@@](C)(OC)[C@@H](O)[C@H](C)O2)[C@H](C)[C@@H](O[C@@H]2O[C@H](C)C[C@H](N(C)C)[C@H]2O)[C@](C)(OC)C[C@@H](C)C(=O)[C@H](C)[C@@H](O)[C@]1(C)O,101&96
COc1ccccc1OCCOc1ccc(F)cc1,98
CC(C)C(=O)N1N=C(c2cccc(NS(C)(=O)=O)c2)CC1c1ccccc1 (stereo unspecified),94
CC1(C)NC(=CC(=O)C(F)(F)F)NC1(C)C,100
CCOC(=O)N1CCC(N2CCCC(CO)C2)CC1 (stereo unspecified),98
CC1=NN(C)C(=O)/C1=N\OC(=O)c1ccc(Cl)cc1,97
NCCCCC(=O)O,94
CCCCN1C(=O)/C(=C2/C(=O)N(C)c3ccccc32)SC1=S,93
C#CCn1c(=NC(=O)C2=COCCO2)sc2ccccc21,105

# Going on with the list:
SMILES,RVFV N-RNA inh
Cc1cc(C)nc(NS(=O)(=O)c2ccc(-n3c(Cn4ncc5ccccc5c4=O)n[nH]c3=S)cc2)n1,111
O=C(NCC1CCCO1)C1CCN(C(=O)c2ccc(Br)cc2)CC1 (stereo unspecified),99
O=C(O)c1cc(=O)c2ccccc2[nH]1,96
CSc1c(C#N)c(N)c(C#N)c2c1COC(C)(C)C2,98
C#CCSc1n[nH]c(-c2ccccc2)n1,97
O=C(NCCS(=O)(=O)N1CCCC1)c1ccc2c(c1)OCO2,90
CCN(CC)P(=O)(Oc1cccc(C)c1)N(CC)CC,101
COc1cccc(C(c2sc3ncnn3c2O)N2CCC(C)CC2)c1 (stereo unspecified),87
CC(Oc1ccc(C(C)(C)C)cc1)C(=O)N1CCN(Cc2ccc3c(c2)OCO3)CC1 (stereo unspecified),102
c1csc(C2=Nn3c(Cn4nnc5ccccc54)nnc3SC2)c1,89
COc1ccc(NC(=O)COc2ccc(C)c(C)c2)c(OC)c1,91
N#C/C(=C/C=C/c1ccc(-c2cc(Cl)ccc2Cl)o1)C(N)=S,95
CCN(CC(=O)N1CCCCC1)S(=O)(=O)c1ccccc1,92
O=C1OCCN1P(=O)(c1ccccc1)c1ccccc1,102
COCn1nc(-c2ccc(Cl)cc2Cl)oc1=S,101
CCOC(=O)Cn1cc(C)c(=O)[nH]c1=O,87
CNC(=O)c1ccc(OCc2ccccc2)c(OC)c1,97
O=C(/C=C/c1ccc(Br)cc1)NCCCn1ccnc1,100
CCOC(=O)N1CCN(C(=O)COc2ccc(S(=O)(=O)NCC(C)C)cc2C)CC1,111
CCC(CC)c1nnc(NS(=O)(=O)c2ccc(C)cc2)s1,82
COc1ccc(CNC2CCCCC2)cc1OC,92
CCCOc1ccccc1C1C(C(=O)OC)=CN(C2CCCC2)C=C1C(=O)OC,105
CCCCC(C)C(N)=O (stereo unspecified),85
Cc1ccc(Cl)cc1N1C(=O)CC(N2CCC(C(N)=O)CC2)C1=O (stereo unspecified),89
O=C(CON1C(=O)c2ccccc2C1=O)c1ccc(O)cc1O,81

# (further entries)
SMILES,RVFV N-RNA inh
CC(C)(C)OC(=O)N1CCN(C2CC(=O)N(CCc3ccccc3)C2=O)CC1 (stereo unspecified),88
Cc1nn(-c2ccccc2)c(C)c1C=NN1CCN(Cc2ccccc2)CC1,97
CC(C)Cc1cc(-c2ccc(F)cc2)c(C#N)c(N)n1,90
COc1ccc2c(c1OC)C(=O)O[C@H]2[C@@H]1c2cc3c(cc2CCN1C)OCO3,93
COC1[C@@H](OC)C[C@H](C)[C@@H](OC)C2=CC(=O)C=C(NC(=O)/C(C)=C/C=C\C(OC)[C@@H](OC(N)=O)/C(C)=C/[C@@H]1C)C2=O (stereo partly specified),103
Nc1[nH]n(-c2ccccc2)c(=O)c1N=Nc1ccc(Cl)cc1,93
Cc1cccc(N=Cc2c(O)[nH]c3ccccc23)c1,89
Cc1ccccc1N=C(NN)c1ccccn1,96
Cc1oc(-c2cccc(C(F)(F)F)c2)cc1CO,94
CCN1CCN(Cc2ccc(NC(=O)Nc3cc(F)ccc3F)cc2)CC1,103
Cc1onc(-c2c(Cl)cccc2Cl)c1NC(=O)N1CCCN2C(=O)c3ccccc3C12 (stereo unspecified),97
COc1cccc(NC(=O)c2oc3ccccc3c2NC(=O)c2ccc3c(c2)OCO3)c1,99
O=C(NC1CCCCC1)c1ccc(CN2CCOCC2)cc1,96
Cc1ccc2c(c1)c(=O)c(Br)c(C)n2Cc1ccccc1,98
CCCCOc1ccccc1-c1nc(SCC(=O)O)n[nH]1,95
Cc1cncc(C(=O)NN)c1,90
CCCN(Cc1ccc(N(CC)CC)cc1)CC1CC1,98
CCCCc1ccc(Oc2cc(N3CCOCC3)nc(-c3ccccc3)n2)cc1,97
O=CNCc1nc2ccccc2n1Cc1ccccc1,90
Cc1cc2c(n1-c1ccc(Br)cc1)CC(C)(C)CC2=O,100
O=C(NC1CCCCC1)C1CC1c1ccccc1 (stereo unspecified),88
c1cc(N2CCCCC2)nnc1N1CCCCC1,92
COC(=O)c1ccccc1NS(=O)(=O)c1ccccc1,105

# Another view of four compounds above:
structure	RVFV N-RNA inh
CCCCOc1ccccc1-c1nc(SCC(=O)O)n[nH]1	95
Cc1cc2c(n1-c1ccc(Br)cc1)CC(C)(C)CC2=O	100
Cc1nn(-c2ccccc2)c(C)c1C=NN1CCN(Cc2ccccc2)CC1	97
Cc1ccccc1N=C(NN)c1ccccn1	96
